Mtb betalactam: beta-lactam sensitization of Mtb H37Rv | M. tuberculosis H37Rv growth with meropenem, percent inhibition; hits of this screen are not shown here | inhibition, % at 25 µM | 330,000 compounds, 0.27% hits;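 active = about 74% or more and at least 40 points above the plate without the antibiotic, then above 30% in a dose series; inconclusive = first-round hits that could not be retested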;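 also: growth measured after seven days incubation then overnight dye step; 0% = bacteria only wells and 100% = bacteria with antibiotic; twin plates without the antibiotic show which effects depend on it; some results filed as inactive read as strong as hits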
RecA intein inh: blocks M. tuberculosis RecA intein splicing | P9WHJ3 | AID 2221 | inhibition, %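 (about 9 µM by stock and volumes)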 | 290,000 compounds, 0.75% hits | cell-free RecA intein splicing, fluorescence; in the data active = inhibition above about 30%; inconclusive = no clear call, values can overlap the other calls;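 also: 0% = vehicle wells and 100% = reference inhibitor control wells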
Target sequence (P9WHJ3 whole entry, looked up): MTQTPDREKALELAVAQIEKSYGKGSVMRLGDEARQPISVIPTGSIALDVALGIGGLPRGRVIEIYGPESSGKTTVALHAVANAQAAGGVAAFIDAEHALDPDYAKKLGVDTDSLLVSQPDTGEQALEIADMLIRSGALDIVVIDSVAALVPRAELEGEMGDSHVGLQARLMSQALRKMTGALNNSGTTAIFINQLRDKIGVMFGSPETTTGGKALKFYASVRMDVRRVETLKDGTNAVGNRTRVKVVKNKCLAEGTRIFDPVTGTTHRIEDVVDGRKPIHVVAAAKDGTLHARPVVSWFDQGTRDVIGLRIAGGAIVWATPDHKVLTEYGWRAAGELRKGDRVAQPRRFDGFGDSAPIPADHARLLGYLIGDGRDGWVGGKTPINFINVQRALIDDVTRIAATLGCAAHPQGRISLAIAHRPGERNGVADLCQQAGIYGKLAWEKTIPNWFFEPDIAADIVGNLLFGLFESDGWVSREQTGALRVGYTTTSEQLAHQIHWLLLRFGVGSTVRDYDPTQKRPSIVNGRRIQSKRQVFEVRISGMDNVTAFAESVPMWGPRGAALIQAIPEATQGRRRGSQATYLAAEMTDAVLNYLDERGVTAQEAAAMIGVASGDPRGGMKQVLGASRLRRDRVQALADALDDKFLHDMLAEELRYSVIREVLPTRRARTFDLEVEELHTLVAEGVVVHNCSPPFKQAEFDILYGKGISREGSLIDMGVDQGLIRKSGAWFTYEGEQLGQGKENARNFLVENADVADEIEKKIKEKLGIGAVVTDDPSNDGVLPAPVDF
Mtb growth: M. tuberculosis H37Rv growth inhibitors, H37Rv strain (AID 1626) | inhibition, % at 10 µM; hits with a dose series show IC50 in µM | 220,000 compounds, 0.95% hits | M. tuberculosis H37Rv growth inhibition; higher % means a stronger effect;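 active = confirmed in a dose series; inconclusive = inhibition above 80% but not taken into the dose series; inactive = below 80% or under 30% at every dose of the series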;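 also: bacteria incubated seven days before Alamar blue readout; 0% = bacteria only wells and 100% = bacteria with antibiotic wells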
YopH inh: inhibitors of Yersinia enterocolitica YopH tyrosine phosphatase | AID 898 | inhibition, %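 (about 10 µM by stock and volumes)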 | 140,000 compounds, 0.16% hits | fluorescence Ex485/Em525;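 active = inhibition of 50% or more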;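 also: controls were vehicle for no effect and minimum signal wells for full effect; inactives centre near -20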
Arbovirus anti: arbovirus infection inhibition. arbovirus infection cell-based antiviral screen. inhibition, % at 10 µM. 200,000 compounds, 0.37% hits. AID 1251;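 active = inhibition from about 30%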;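 also: bluetongue infection of BSR cells; cell survival read as ATP light after 72 h; 0% = infected wells without compound and 100% = uninfected wells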
Arbovirus anti repeat: second read-out of Arbovirus anti, no call of its own (marks repeat the call); inhibition, %; measured here: 10K subset replicate screen; many hits read low in the repeat;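 first of two repeat runs on a subset; 0% = infected and 100% = uninfected wells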
Numbers without * were called inactive; ? = inconclusive; . = no result given.

SMILES | Mtb betalactam | RecA intein inh | Mtb growth | YopH inh | Arbovirus anti | others
NC(=O)COC(=O)CN1C(=O)C2CCCCC2C1=O (stereo not given) | -8 | -2.4 | 1% | -21 | -5
COc1ccc(C)cc1S(=O)(=O)N(C)CC(=O)N1CCCCC1 | -7 | -2.1 | 0% | -13 | 4
CCOc1ccccc1C1NC(=O)NC(C)=C1C(=O)OC1CCCCC1 (stereo not given) | 6 | -3.5 | 4% | -52 | -8
Cc1nc(NC(=O)c2ccc3c(c2)OCO3)ccc1Br | -4 | -1.9 | -5% | . | -5
Cc1ccc(CNC(=O)c2c(-c3ccccc3Cl)noc2C)cc1 | -3 | 1.7 | . | . | .
CCOCCCNC(=O)/C(C#N)=C/c1cc(OC)c(O)c([N+](=O)[O-])c1 | -5 | 1.1 | -7% | . | -26
O=C(COc1ccccc1)Nc1c2c(nn1-c1ccccc1)CS(=O)(=O)C2 | -21 | -0.2 | . | . | .
CCCN1CCC(NCC(C)c2ccccc2)CC1 (stereo not given) | 0 | 1.2 | . | . | .
COc1ccc(C)cc1NC(=O)C1CCCN(S(=O)(=O)c2ccc3c(c2)CCCN3C(C)=O)C1 (stereo not given) | 6 | 0.6 | . | . | .
Cc1cccc(OCCNc2ccc([N+](=O)[O-])cn2)c1 | 1 | 2.5 | 20% | . | -2
CCC(=O)c1ccc(OCC(O)CNC(C)c2ccccc2)cc1 (stereo not given) | -10 | -2.1 | 2% | -20 | 5
CC(C)OCCCN1CN(S(=O)(=O)c2cccc(Cl)c2)c2nc3ccccc3nc21 | 6 | 17 | 1% | -13 | 3
O=C(NCc1ccco1)NCC(F)(F)F | 8 | -0.8 | -6% | 5 | 4
COc1ccc(Nc2c([N+](=O)[O-])ccc3c2=NC2(CCCCC2)N=3)cc1 | 93 | -2.8 | ? | . | -17
CC1(NC(=O)NCc2ccccc2)CCS(=O)(=O)C1 (stereo not given) | -5 | -1.3 | -8% | . | 4
CCn1ncc(C2=NOC(C(=O)Nc3cnn(C45CC6CC(CC(C6)C4)C5)c3)C2)c1C (stereo not given) | 11 | 3.1 | 11% | -44 | -2
COC(C[C@H](O)[C@H](C)[C@@H](O)COCc1ccccc1)OC | . | -1.6 | -5% | . | .
CCC(=O)c1ccc(OCC(O)CN2CC(C)OC(C)C2)cc1 (stereo not given) | -3 | -0.9 | 6% | -17 | 1
COc1ccc(NC(=O)N(Cc2cc3cc(C)ccc3[nH]c2=O)CC2CCCO2)cc1 (stereo not given) | 0 | 1.4 | 6% | . | .
O=C(CSc1ncn[nH]1)Nc1nc(-c2ccccc2)ns1 | 56 | -1.4 | 23% | -23 | 41*
Cc1cc(C)n2nc(C(=O)OCC(=O)NC(=O)c3ccccc3)nc2n1 | 3 | -3.9 | . | . | .
Cc1c(N2C(=O)c3ccc4c5c(ccc(c35)C2=O)CC4)c(=O)n(-c2ccccc2)n1C | -8 | 15 | -11% | -41 | -2
CC(=O)c1cccc(N(C(=O)CNC(=O)c2ccco2)C(C(=O)NCC2CCCO2)c2ccccc2)c1 (stereo not given) | 3 | 0.7 | . | . | .
COc1ccccc1C(=O)N/C(=C\c1ccc(Br)cc1)C(=O)NCCCO | 4 | 3.1 | -1% | . | -11
Brc1ccc2nc(N3CCN(c4ccccc4)CC3)sc2c1 | 6 | -0.2 | 2% | . | -4
O=C1NC(=S)N/C1=C/c1cc([N+](=O)[O-])ccc1N1CCOCC1 | -7 | -0.3 | 2% | . | -4
CCOC(=O)C1CCN(S(=O)(=O)c2ccc3oc(=O)ccc3c2)CC1 | -1 | -0.2 | . | . | .
CCc1ccccc1NC(=O)c1nnn(CC(=O)Nc2cccc(C)c2)c1N | 1 | 6.1 | 0% | -22 | -12
COc1ccc(CCNC(=O)CCc2nnc(Cc3ccc4c(c3)OCO4)o2)c(OC)c1 | ? | 2.2 | . | . | .
Cc1cc(Cl)ccc1OC(C)C(=O)Nc1ccc(S(=O)(=O)N2CCOCC2)cc1 (stereo not given) | 8 | -4.6 | . | . | .

The closing 2 entries of the section above are carried over, then new ones follow.
SMILES | Mtb betalactam | RecA intein inh | Mtb growth | YopH inh | Arbovirus anti | others
COc1ccc(CCNC(=O)CCc2nnc(Cc3ccc4c(c3)OCO4)o2)c(OC)c1 | ? | 2.2 | . | . | .
Cc1cc(Cl)ccc1OC(C)C(=O)Nc1ccc(S(=O)(=O)N2CCOCC2)cc1 (stereo not given) | 8 | -4.6 | . | . | .
COCCCNC(=O)c1cn(CC(C)C)c(=O)c2c1c1ccccc1n2C | -1 | -1.7 | -2% | -11 | -4
Cc1ccc(O)c(CP(=O)(c2ccccc2)c2ccccc2)c1 | 1 | -1.2 | 3% | -33 | 3
CC1CCN(CC(=O)Nc2cccc([N+](=O)[O-])c2)CC1 | 92 | 0.1 | -13% | -41 | -1
CC(=O)N(C1=C(N)C(=O)c2ccccc2C1=O)c1ccccc1 | -6 | 87* | . | . | .
COC(=O)c1cc(C(=O)Nc2ccc(C)cn2)cc([N+](=O)[O-])c1 | 7 | -3.9 | -8% | -21 | 3
C=CCOC(=O)C1=C(C)N=C2SCCC(=O)N2C1c1ccc(OC(=O)c2ccco2)cc1 (stereo not given) | ? | 0.4 | -4% | -24 | 2 | Arbovirus anti repeat=-1
CCC1(C)Cc2ccccc2-c2nc3n(c(=O)c21)CC(C(=O)O)S3 (stereo not given) | -18 | 4.5 | -1% | -38 | 5
Cc1oc2ccc(O)cc2c1C(=O)c1ccccc1 | 5 | 1.9 | . | . | .
CCn1c(=O)n(CC(=O)Nc2cc(OC)c(OC)c(OC)c2)c(=O)c2ccccc21 | 2 | -0.4 | -4% | -13 | 3
COc1ccc(CN2CCN(c3ccc(F)cc3)CC2)c(OC)c1OC | -5 | -2.5 | -4% | -29 | 12
COc1cccc(N2C(=NC(=O)C3CCCCC3)SC3CS(=O)(=O)CC32)c1 (stereo not given) | 9 | 0.0 | . | . | .
COc1ccc(NC(=O)CCCN2C(=O)C3C4C=CC(C4)C3C2=O)c(OC)c1 (stereo not given) | -4 | 3.2 | -4% | 8 | 5
O=C(O)c1cccc2c3c([nH]c12)CCCC3 | -10 | -3.7 | . | . | .
COC(=O)Nc1ccc(S(=O)(=O)n2cnc3ccccc32)cc1 | -6 | -3.0 | -6% | -21 | 4
CC(=O)N(c1ccc(C)cc1)C1C=CS(=O)(=O)C1 (stereo not given) | 4 | 1.6 | -3% | -38 | 4 | Arbovirus anti repeat=2
CCOC(=O)C1CCCN(Cc2c(C(=O)N3CCOCC3)nc3ccccn23)C1 (stereo not given) | -8 | -3.1 | -1% | . | 4
O=C(Oc1ccc2c(-c3ccccc3)cc(=O)oc2c1)c1cccs1 | -3 | 3.7 | 9% | -10 | 4
Cc1cc(=O)n2[nH]c(N3C(=O)CCC3=O)nc2n1 | 2 | 2.2 | -4% | -43 | 0
c1ccc(COC2CCCN(Cc3nc(-c4cnccn4)no3)C2)nc1 (stereo not given) | 1 | -1.0 | 7% | . | 7
Cc1ccc(N2C(=O)NC(=O)/C(=C\c3cc(C)n(-c4sc5c(c4C#N)CCCC5)c3C)C2=O)cc1 | -1 | 0.6 | -2% | -8 | -8
COc1ccc(NC(=O)CN2CC(C)OC(C)C2)cc1Cl (stereo not given) | 4 | -1.8 | -4% | . | -2
COc1cccc(CN2CCNCC2)c1OC | -5 | -2.7 | . | . | .
CN(C)C(=O)C[n+]1ccc(C(N)=O)cc1 | -10 | -1.1 | -10% | . | .
O=S(=O)(Nc1cccc(-n2cnnn2)c1)c1cc(Br)ccc1Br | 4 | -2.1 | . | . | .
COc1ccc(S(=O)(=O)N2CCCC2CNC(=O)C(=O)NCc2ccccc2)cc1 (stereo not given) | 7 | -0.3 | . | . | .
CC(=O)NC(=S)Nc1ccc(NC(=O)c2cccs2)cc1 | . | -1.1 | 36% | -26 | -1
COc1ccc(-c2nc(SCC(=O)N3CCOCC3)n[nH]2)cc1 | 2 | -1.0 | 2% | -21 | -3
CCSc1nnc(NC(=O)c2cccnc2)s1 | 5 | 3.3 | 9% | -29 | 2
O=c1c2nncn2c2cccnc2n1CCNc1ncc(C(F)(F)F)cc1Cl | -5 | -3.8 | . | . | .
CCCOC(=O)Nc1ccc(S(=O)(=O)Nc2ncccn2)cc1 | 4 | -1.0 | -2% | . | .
COc1ccc(NC(=O)c2cc3c(s2)CCC(C)C3)cc1S(=O)(=O)N1CCOCC1 (stereo not given) | 61 | 4.0 | 52% | -30 | 16
COc1ccc2cc(C(=O)N3CCN(c4ccccc4F)CC3)[nH]c2c1 | -9 | 0.6 | . | . | .
COc1ccc(-n2nc3c(c2NC(=O)c2ccc4c(c2)OCO4)CS(=O)(=O)C3)cc1 | 7 | -2.9 | . | . | .
CN1C(=O)N(C)C2(c3ccccc3)Nn3c(s/c(=C/c4ccco4)c3=O)=NC12c1ccccc1 (stereo not given) | -9 | -0.7 | 1% | -43 | 2
COC(=O)C1CN(S(=O)(=O)c2ccccc2)CCN1S(=O)(=O)c1ccccc1 (stereo not given) | 10 | 0.0 | -16% | -9 | 5
NC(=O)CC(NC(=O)Cc1cccc2ccccc12)c1ccc(NCCc2ccc(F)cc2)c([N+](=O)[O-])c1 (stereo not given) | -1 | 0.6 | 1% | . | .
COC(=O)C1CCN(S(=O)(=O)c2c(C)n(C)c(=O)n(C)c2=O)CC1 | -3 | -1.1 | 2% | -37 | 6
CCCc1c(C)nc2c(OC)cccc2c1SCC(=O)O | 98 | -1.5 | 1% | . | 10
CCOc1ccccc1/C=N/Nc1nc2ccccc2o1 | 29 | -5.7 | . | . | .
CCOC(=O)C1CCN(C(=O)C(=O)c2cn(CC(=O)N3CCCCCC3)c3ccccc23)CC1 | -2 | 0.4 | . | . | .
Cc1nc2nc(N)nc(OCc3ccccc3)c2nc1C | -1 | -38 | . | . | .
O=C(NCCN1CCOCC1)c1ccc(CSCc2cccc(Cl)c2)o1 | -1 | -0.1 | -10% | . | 6
COc1ccc(-n2c(N)c(-c3nc4ccccc4n3C)sc2=S)cc1 | 0 | -9.4 | 4% | -35 | -1
CCn1c(O)c(C(=O)CC2NCCc3ccccc32)c(=O)n(CC)c1=S (stereo not given) | 0 | 1.5 | . | -26 | 7
COc1cccc(C(=O)Nc2ccc(S(=O)(=O)NCc3ccco3)cc2)c1 | -27 | 0.2 | 0% | -9 | -2

A stretch from further up, as a working copy:
SMILES | Mtb betalactam | RecA intein inh | Mtb growth | YopH inh | Arbovirus anti | others
COC(=O)C1CN(S(=O)(=O)c2ccccc2)CCN1S(=O)(=O)c1ccccc1 (stereo not given) | 10 | 0.0 | -16% | -9 | 5
NC(=O)CC(NC(=O)Cc1cccc2ccccc12)c1ccc(NCCc2ccc(F)cc2)c([N+](=O)[O-])c1 (stereo not given) | -1 | 0.6 | 1% | . | .
COC(=O)C1CCN(S(=O)(=O)c2c(C)n(C)c(=O)n(C)c2=O)CC1 | -3 | -1.1 | 2% | -37 | 6
CCCc1c(C)nc2c(OC)cccc2c1SCC(=O)O | 98 | -1.5 | 1% | . | 10
CCOc1ccccc1/C=N/Nc1nc2ccccc2o1 | 29 | -5.7 | . | . | .
CCOC(=O)C1CCN(C(=O)C(=O)c2cn(CC(=O)N3CCCCCC3)c3ccccc23)CC1 | -2 | 0.4 | . | . | .
Cc1nc2nc(N)nc(OCc3ccccc3)c2nc1C | -1 | -38 | . | . | .
O=C(NCCN1CCOCC1)c1ccc(CSCc2cccc(Cl)c2)o1 | -1 | -0.1 | -10% | . | 6
COc1ccc(-n2c(N)c(-c3nc4ccccc4n3C)sc2=S)cc1 | 0 | -9.4 | 4% | -35 | -1
CCn1c(O)c(C(=O)CC2NCCc3ccccc32)c(=O)n(CC)c1=S (stereo not given) | 0 | 1.5 | . | -26 | 7
COc1cccc(C(=O)Nc2ccc(S(=O)(=O)NCc3ccco3)cc2)c1 | -27 | 0.2 | 0% | -9 | -2

Remaining list, next part.
SMILES | Mtb betalactam | RecA intein inh | Mtb growth | YopH inh | Arbovirus anti | others
CCOC(=O)c1c(CN2CCOCC2)oc2ccc(OC)cc12 | 0 | -1.7 | 0% | -31 | -3
Cc1c(/C=N\NC(=O)c2cccc(F)c2)cnn1C | 7 | -5.8 | 8% | -16 | 1
O=C(Cc1ccccc1)CC1(O)C(=O)Nc2ccccc21 (stereo not given) | -14 | -0.3 | -6% | -22 | 4
O=C(NC(=S)Nc1ccccc1O)c1ccc(Cl)cc1Cl | 98 | . | ? | . | -19
Cc1ccc(C23CC4CC(CC(C(=O)NC(C)C)(C4)C2)C3)cc1 | 1 | 2.6 | . | . | .
Cc1[nH]c(=O)[nH]c1C(=O)CCCCC(=O)OCC(=O)Nc1ccccn1 | -5 | 0.4 | -21% | -38 | -3

Screens: PubChem BioAssay, several laboratories

Some of the compounds tested. The share of hits here may be higher or lower than overall.
